# Screening data (PubChem)
# HCMV NEC inh: disrupts HCMV UL50-UL53 complex binding. HTRF UL50-UL53 interaction, normalized percent inhibition. inhibition, % (concentration not given with the values). 0.15% of 190,000 active. AID 1918969;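 active means both replicates at 50% or more, plus weaker picks with an unusually low signal ratio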;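 further: stock transfer was 100 nL into about 20 µL; 0% = negative control wells and 100% = wells with untagged competitor protein; inactives centre near -12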
# Sa growth inh: S. aureus growth inhibition | S. aureus RN4220 growth, OD600, 20 h, 42 °C; hits give low values | relative growth, % (concentration not given with the values) | 0.53% of 170,000 active;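 active means growth at 42 °C up to 50% and 20 or more points under that at 30 °C, or under 10% at both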;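 further: 300 nL library stock went into each well; scaled to the means of positive and negative controls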
# GIV-Gai inh: blocks GIV peptide binding to rat Galpha-i3. 0.42% of 210,000 active. AID 1224905. Galpha-i3/FITC-GIV peptide fluorescence polarization, 90 min; hits give low values; scaled: aluminum fluoride 0%, vehicle 100%. percent of control (FP), % (concentration not given with the values). P08753;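 active means replicate mean at 85% of control or lower, very high polarization wells dropped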;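 further: wells of about 15 µL received 100 nL stock; the first replicate is given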
# Target sequence (P08753 whole entry, looked up): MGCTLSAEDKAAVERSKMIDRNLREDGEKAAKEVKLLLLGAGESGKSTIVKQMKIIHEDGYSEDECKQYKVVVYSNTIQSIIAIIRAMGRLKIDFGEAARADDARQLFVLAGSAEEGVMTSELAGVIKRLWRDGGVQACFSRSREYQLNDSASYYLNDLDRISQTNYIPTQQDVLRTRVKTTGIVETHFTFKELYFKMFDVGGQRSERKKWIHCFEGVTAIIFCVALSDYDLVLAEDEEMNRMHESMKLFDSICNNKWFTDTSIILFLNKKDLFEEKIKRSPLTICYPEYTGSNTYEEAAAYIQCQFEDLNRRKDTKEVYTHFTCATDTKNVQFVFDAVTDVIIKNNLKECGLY
# Sa growth inh second temp: recorded beside Sa growth inh, whose call it bears; relative growth, %; measured here: growth at 30 °C;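 optical density after 20 h as mean of two plates; 100% = untreated growth and lower means inhibition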
# Starred values were filed as active, the others as inactive; · = not tested or not shown; & = joins results of further samples.
smiles,HCMV NEC inh,Sa growth inh,Sa growth inh second temp,GIV-Gai inh
COc1cccc(NC(=O)/C(C#N)=C2\SCC(=O)N2c2ccc(C)cc2)c1,-12,89,92,·
CS(=O)(=O)N(Cc1nnc(SCC(=O)c2ccccc2)n1-c1ccccc1)c1ccc(F)cc1,3,·,·,104
CCOC(=O)C1=C(C)N=c2s/c(=C\c3ccc(SC)cc3)c(=O)n2C1c1ccc(OC)cc1OC (stereo not drawn),-4,·,·,111
COC(=O)c1cccc(S(=O)(=O)N2CCOCC2)c1,15,78,115,100
O=c1c2ccccc2nnn1CSc1nnc2ccccn12,-42,98,94,·
COc1cccc(C(=O)NC2CCCC2)c1,-42,90,89,98
Cc1cccc(-n2c(Cn3ccc(C)n3)n[nH]c2=S)c1,-25,82,82,101
Nc1ncnc2c1ncn2CC(O)CO (stereo not drawn),-13,110,95,102
COc1ccc(CNC(=O)CCCN2C(=O)CCn3nc(-c4cn(C)c5ccccc45)cc32)cc1,·,88,86,100
O=C(CSCC(=O)Nc1nc(-c2cccs2)cs1)Nc1nccs1,4,106,94,99
CC(Oc1ccccc1)C(=O)Nc1nc2ccccc2s1 (stereo not drawn),0,77,61,93
CC1=C(C(=O)Nc2cccc(Cl)c2)C2(CCCCCC2)OC1=O,·,119,97,103
CN1C(=O)/C(=C\c2ccc(-c3ccc(S(N)(=O)=O)cc3)o2)c2ccccc21,-34,97,103,·
COc1ccc2c(c1)C=CC(C1C(=O)c3ccccc3C1=O)N2 (stereo not drawn),-32,105,90,106
O=S(=O)(Nc1nc2n(n1)C(c1c(F)cccc1Cl)C=C(c1ccccc1)N2)c1ccccc1 (stereo not drawn),-28,·,·,98
CC(C)(C)c1nnc(Nc2cccc(F)c2)[nH]c1=O,-33,·,·,100
Cc1ccc(CNC(=O)NCc2noc3ccc(C)cc23)cc1,·,102,86,105
Cc1ccc(NC(=O)CN2C(=O)COc3ccc(S(=O)(=O)N4CCCCCC4)cc32)cc1C,·,108,86,100
FC(F)(F)c1cnc(Sc2ncn[nH]2)c(Cl)c1,-10,·,·,100
COc1cccc(C(=O)Nc2cccc(C(=O)OCc3cc(=O)n4nc(C5CC5)sc4n3)c2)c1,·,80,87,107
Cc1c(NS(C)(=O)=O)cccc1-c1nc2ccccc2s1,-14,99,88,102
Cc1ccc(NC(=O)CCCc2nc(-c3cc4ccc(C)cc4[nH]c3=O)no2)cc1,-12,·,·,113
O=S(=O)(CCO/N=C/c1cccs1)c1ccc(Cl)cc1,-51,93,79,104
C/C(=C\C(=O)Nc1ccc(Cl)cc1)N1CCN(c2ccccc2F)CC1,-28,83,85,·
O=C(NNC1=NCCC1)c1cccc(S(=O)(=O)N2CCOCC2)c1,-38,101,94,·
Cc1oc(-c2ccc3c(c2)OCCO3)cc1C(=O)NC(C(=O)O)C(C)C (stereo not drawn),·,94,80,101
CSc1ncccc1C(=O)OC1CCOC1=O (stereo not drawn),-14,88,91,·
CC1(C(=O)O)CC(C)(C(=O)O)CC(C)(C(=O)O)C1 (stereo not drawn),10,102,100,104
CC1=C(C(=O)OCCc2ccccc2)C(c2ccccc2C(F)(F)F)NC(=O)N1C (stereo not drawn),7,·,·,108
CNc1nc(C)c(C(=O)OCC(=O)OC)s1,-13,73,101,96

# A section taken from the entries so far, for reference:
smiles,HCMV NEC inh,Sa growth inh,Sa growth inh second temp,GIV-Gai inh
CC1=C(C(=O)OCCc2ccccc2)C(c2ccccc2C(F)(F)F)NC(=O)N1C (stereo not drawn),7,·,·,108
CNc1nc(C)c(C(=O)OCC(=O)OC)s1,-13,73,101,96

# Next part.
smiles,HCMV NEC inh,Sa growth inh,Sa growth inh second temp,GIV-Gai inh
COc1ccccc1Cn1cnc2c([nH]c3ccc(C)cc32)c1=O,-12,·,·,104
CCCN1C[C@H](CSC)C[C@@H]2c3cccc4[nH]cc(c34)C[C@H]21,2&-4&50&52,93&81&95,82&83&88,104&105
COC(=O)c1ccc(/C=N/NC(=O)CSc2nnc(C)n2-c2ccccc2)cc1,-28,111,88,100
O=C(NCC(c1ccccc1)c1ccccc1)c1nn(-c2ccccc2F)nc1CO,6,102,96,99
CC1CCN(Cn2c(=S)n(CN3CCC(C)CC3)c3ccccc32)CC1,·,104,83,106
CC1CC(C)CN(C(=O)c2ccc(CSc3nc4ccncc4n3Cc3ccc(F)cc3)cc2)C1 (stereo not drawn),·,111,86,102
CC(C)N(CC(N)=O)C(=O)Cc1ccc(Cl)cc1,-21,72,93,·
O=C1c2ccc3c4c(ccc(c24)C(=O)N1c1cccc(O)c1)C(=O)N(c1cccc(O)c1)C3=O,-28,·,·,101
c1ccc(-c2nnc3sc(CN4CCc5ccccc5C4)cn23)cc1,-24,·,·,103
CCc1ccc(NC(=O)c2cccc(N3CCCS3(=O)=O)c2)cc1,·,104,88,107
CCN(CC)c1nc(-c2ccncc2)nc2ccccc12,-9,96,61,·
CCC(=O)Oc1ccc(-c2nc3ccccc3c(=O)o2)cc1,-23,100,87,94
CN(C)C(CNC(=O)c1oc2ccccc2c1CSc1ncn[nH]1)c1ccco1 (stereo not drawn),-16,96,92,·
Cc1cc(C(F)(F)F)nn1-c1nc(-c2ccccc2)cc(C(F)(F)F)n1,13,102,89,103
Oc1cc2c(cc1C(c1ccc(C(F)(F)F)cc1)N1CCOCC1)OCO2 (stereo not drawn),-4,0,-1,97
CC(=O)Nc1cccc(OCc2cc(=O)n3nc(C4CC4)sc3n2)c1,-12,96,85,107
C=C(C)CSc1nnc(SCc2cccc3ccccc23)s1,-34,130,88,·
CCOc1ccc(CNC(=O)Cn2nc(C)n3cccc3c2=O)cc1,3,112,94,101
Cn1c(=NC(=O)C2CCN(S(=O)(=O)c3cccs3)CC2)sc2ccccc21,-27,122,96,·
COc1ccc(S(=O)(=O)N2CCN(Cc3nc4ccc(C)cc4o3)CC2)cc1OC,·,94,92,108
CC1(C)CC(=O)C(C=NCCN2CCNC2=O)=C(O)C1,-34,91,82,102
COc1ccccc1NC(=O)CSc1ccccc1,-6,112,96,103
CN1C(C(=O)NCc2ccc3c(c2)OCO3)=C(c2ccccc2)c2cc(Cl)ccc2S1(=O)=O,-19,·,·,100
Cc1ccc(-n2c(N)c(Br)c(=O)[nH]c2=O)cc1,-13,·,·,96
CCCC(=O)N1CCN(c2ccc(NC(=O)c3ccco3)cc2Cl)CC1,3,108,75,113
CCN1CCN(C(=O)C2=COCCO2)CC1,-20,93,92,·
C=CCNc1ccc(C(F)(F)F)cn1,-17,111,101,110
Cc1cccc(OCC(=O)OC2CCOC2=O)c1 (stereo not drawn),-28,98,93,·
CCOC(=O)c1cc(C(=O)/C=C/N(C)C)on1,-83,100,91,107
CCOc1ccc(-c2cc3c(N4CCC(C(=O)O)CC4)nccn3n2)cc1,-47,·,·,101
CCOC(=O)c1ccc(NC(=O)c2ccc3c(c2)NC(=O)c2ccccc2S3)cc1,-8,109,82,103
Cc1cc(C(=O)OCc2csc(-c3ccccc3)n2)c(C)o1,-13,96,81,·
CCCC(=O)Nc1ccc2oc(-c3ccccc3Br)nc2c1,-7,107,110,102
CCOC(=O)c1sc(C2COc3ccccc3O2)nc1C (stereo not drawn),-8,94,88,102
Nc1ccc(C(=O)OCc2nc3cc4ccccc4cc3[nH]2)cc1,·,106,66,103
CCCC12CCC(c3ccc(C#N)cc3)(CC1)CC2,·,92,94,105
O=C(NCCc1nc(-c2ccccc2)no1)c1ccccc1,-8,·,·,107
CCOC(=O)c1noc2nc(C)n(CC(=O)NC(C)CC)c(=O)c12 (stereo not drawn),·,106,101,98
CC(C)NC(=O)Cn1ncn2c(cc3cc(F)ccc32)c1=O,-31,114,100,97
COc1ccc(OC)c(S(=O)(=O)Nc2ccc(N3CCCS3(=O)=O)cc2)c1,-24,·,·,99
Cc1cc(Br)ccc1SCC(=O)OCC(=O)N1CCCC(C)C1 (stereo not drawn),-36,105,81,·
CC(=O)Oc1ccc2nc(CN3C(=O)c4ccccc4C3=O)oc(=O)c2c1,-5,80,97,·
Cc1cc(N)n2nc(-c3ccccc3)cc2n1,-15,95,83,·
CC(CNC(=O)CCCn1c(=O)c2cccn2c2ccccc21)c1ccccc1 (stereo not drawn),3,97,62,99
CCCCn1c(=O)[nH]c(=O)c2c1nc(CNc1ccc(Cl)cc1)n2CCC(C)C,12,94,89,·
COc1ccc(-c2ccc(=O)[nH]n2)cc1F,-34,·,·,108
CC(C)(CNC(=O)COc1ccccc1Cc1ccccc1)N1CCOCC1,-27,103,84,·
CCOc1ccc(NC(=O)Cn2c(=O)n(-c3cccc(Cl)c3)c(=O)c3c2c2cc(C)ccc2n3C)cc1,21,94,105,105
COc1ccc(C2SCC(C(=O)NCc3ccc(F)cc3)N2C(C)=O)cc1 (stereo not drawn),·,114,80,105
CCCCNC(=O)n1nccc1-c1sc(-c2cccs2)nc1C,-13,74,54,111
CC(=O)Nc1ccccc1OCC(=O)c1cc(C)n(Cc2cccs2)c1C,-43,92,99,·
O=S(Cc1ccc2nonc2c1)c1cccs1 (stereo not drawn),-91,87,85,105
CCOC(=O)c1ccccc1NC(=O)Nc1nc2ccccc2s1,-22,·,·,103
COc1ccc(N2COC(C)c3nc4ccccc4n3C2)cc1 (stereo not drawn),-13,101,101,105
Cc1nc(N)oc1C(O)c1ccccc1 (stereo not drawn),-18,·,·,107
COC(=O)c1ccc(/C=C2\SC(N)=NC2=O)cc1,-13,103,87,·
CCc1ccc(S(=O)(=O)c2nnn3c2nc(NCCNC(C)=O)c2cc(Cl)ccc23)cc1,-23,100,81,101
COc1cc(C=C2C(=O)NC(=S)NC2=O)ccc1OS(=O)(=O)c1ccccc1,8,·,·,98
C=CCSc1nnc2c(n1)OC(c1ccccc1OCC(=O)O)Nc1ccccc1-2 (stereo not drawn),·,100,82,100
CCc1ccccc1NC(=O)Nc1nnc(N(CC)c2ccccc2)s1,-17,116,96,105

# Continuation:
smiles,HCMV NEC inh,Sa growth inh,Sa growth inh second temp,GIV-Gai inh
Cc1ccc(S(=O)(=O)N(C)C)cc1,1,91,94,·
CCOP(=O)(c1ccccc1)c1ccccc1,-9,109,98,100
CCc1ccc(-c2cn3nc(N4CCC(C(=O)NCc5ccc(Cl)cc5)CC4)sc3n2)cc1,-15,·,·,108
Cc1ccc2nc(NC(=O)CN3C(=O)C4C5C=CC(C5)C4C3=O)sc2c1 (stereo not drawn),0,121,91,103
Cc1cccc(N2C(=O)CSC23C(=O)N(CC(=O)Nc2cccc(Cl)c2)c2ccccc23)c1 (stereo not drawn),·,112,105,105
CN(C(=O)C1=CC(c2ccc3c(c2)OCO3)=NS(=O)(=O)N1C)c1ccccc1,-58,120,88,105
O=S(=O)(NCc1cccn1Cc1ccccc1)c1cccc2nsnc12,-50,·,·,107
CCN1/C(=C2/SC(=S)N(CC(=O)O)C2=O)C=Cc2cc(OC)ccc21,-89,111,106,102
CC1CCC(NC(=O)C2c3ccccc3C(=O)N2CCCN2CCOCC2)CC1 (stereo not drawn),0,111,88,104
O=C(CN1C(=O)C2CC=CCC2C1=O)Nc1ccc(-c2nnc3n2CCCCC3)cc1 (stereo not drawn),-20,80,86,·
O=S(=O)(c1ccccc1)N1CCCN(c2nccc(C(F)(F)F)n2)CC1,-8,94,103,99
COC(=O)C12CCC(C)(c3nc4ccccc4nc31)C2(C)C (stereo not drawn),-4,106,100,102
COc1ccc(Cl)cc1NS(=O)(=O)c1cc(-c2cc(C)no2)ccc1C,·,99,86,102
COc1ccc(C2=NN(CC(=O)NC3CCCCC3C)C(=O)CC2)cc1 (stereo not drawn),-6,107,97,106
Cc1cc(C)n(CCc2nc3c4ccccc4nc(N4CCN(c5ccccc5)CC4)n3n2)n1,-14,111,95,104
COc1ccc(OC(=O)c2ccc3snnc3c2)cc1,-35,102,84,102
COC(=O)c1noc(C)c1C(=O)/C=C/N(C)C,-17,110,75,154
O=C(NCc1ccccc1CN1CCOCC1)C1CC(=O)N(c2cccc3ccccc23)C1 (stereo not drawn),-30,99,88,·
CC(NC(=O)CCn1c(=S)oc2ccccc21)c1ccccc1 (stereo not drawn),·,106,94,113
CC(=O)Oc1c(I)c(=O)n(C)c2ccccc12,-61,94,76,101

# 2 of these compounds in a different format:
Structure: CC1CCC(NC(=O)C2c3ccccc3C(=O)N2CCCN2CCOCC2)CC1 (stereo not drawn)
  HCMV NEC inh: 0; Sa growth inh: 111; Sa growth inh second temp: 88; GIV-Gai inh: 104
Structure: O=C(CN1C(=O)C2CC=CCC2C1=O)Nc1ccc(-c2nnc3n2CCCCC3)cc1 (stereo not drawn)
  HCMV NEC inh: -20; Sa growth inh: 80; Sa growth inh second temp: 86; GIV-Gai inh: ·

# 4 compounds already listed, ordered by the number in Sa growth inh second temp, ascending:
mol,Sa growth inh second temp
O=C(CN1C(=O)C2CC=CCC2C1=O)Nc1ccc(-c2nnc3n2CCCCC3)cc1 (stereo not drawn),86
CC1CCC(NC(=O)C2c3ccccc3C(=O)N2CCCN2CCOCC2)CC1 (stereo not drawn),88
Cc1cc(C)n(CCc2nc3c4ccccc4nc(N4CCN(c5ccccc5)CC4)n3n2)n1,95
CCN1/C(=C2/SC(=S)N(CC(=O)O)C2=O)C=Cc2cc(OC)ccc21,106
